Assay outcomes (PubChem BioAssay)
KCNQ2 inh: KCNQ2 potassium channel inhibitors, primary screen, cell-based, CHO-K1, FluxOR thallium flux, B-score (AID 2156). 310,000 compounds, 1.1% hits. B-score at 10 µM. 20 min; hits give low values; only compounds with negative scores are shown here; some inactives read as strong as hits. Potassium voltage-gated channel subfamily KQT member 2 (Rattus norvegicus), O88943;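 active means fluorescence ratio B-score at most minus 3 library SDs, with starting brightness B-score within 2 library SDs, cut at about -5.5 in these data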
Target sequence (O88943 whole entry, looked up): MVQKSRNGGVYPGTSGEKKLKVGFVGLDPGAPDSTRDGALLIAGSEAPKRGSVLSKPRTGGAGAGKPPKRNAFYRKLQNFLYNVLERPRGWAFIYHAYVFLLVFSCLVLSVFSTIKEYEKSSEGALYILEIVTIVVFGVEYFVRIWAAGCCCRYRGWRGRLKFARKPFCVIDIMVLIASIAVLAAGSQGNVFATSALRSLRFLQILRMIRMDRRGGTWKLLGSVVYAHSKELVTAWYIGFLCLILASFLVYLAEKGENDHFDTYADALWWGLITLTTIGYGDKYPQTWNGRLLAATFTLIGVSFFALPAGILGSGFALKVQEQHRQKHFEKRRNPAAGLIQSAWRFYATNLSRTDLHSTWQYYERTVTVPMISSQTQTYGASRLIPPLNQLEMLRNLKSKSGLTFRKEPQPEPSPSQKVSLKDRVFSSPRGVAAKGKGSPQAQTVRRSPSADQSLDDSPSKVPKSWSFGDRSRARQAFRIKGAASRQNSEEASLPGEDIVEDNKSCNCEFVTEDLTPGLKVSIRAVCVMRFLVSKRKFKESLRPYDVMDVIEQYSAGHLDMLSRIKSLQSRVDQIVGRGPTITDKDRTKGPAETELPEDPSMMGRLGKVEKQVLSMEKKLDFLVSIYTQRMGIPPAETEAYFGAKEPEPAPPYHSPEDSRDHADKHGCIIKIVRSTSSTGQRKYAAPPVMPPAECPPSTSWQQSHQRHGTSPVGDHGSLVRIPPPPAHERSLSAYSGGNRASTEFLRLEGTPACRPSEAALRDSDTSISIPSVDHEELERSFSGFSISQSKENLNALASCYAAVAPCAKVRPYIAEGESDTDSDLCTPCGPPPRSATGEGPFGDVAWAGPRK
KCNQ2 inh baseline: further read-out of KCNQ2 inh, marked with its call; B-score; measured here: initial fluorescence intensity artifact check;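 brightness before thallium and not channel activity; 0 = typical well and far values either way flag optical interference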
The depositor's hits bear a star; i = inactive. A portion of the library; rates above refer to the full screens.

cpd	SMILES	KCNQ2 inh	KCNQ2 inh baseline
1	CCOC(=O)COc1ccc(S(=O)(=O)N2CCN(c3ccc(OC)cc3)CC2)cc1	i	0.63
2	COC(=O)Nc1ccc(S(=O)(=O)N(C)C)cc1	i	3.3
3	CCOc1ccc(NC(=O)CN(C)C(=O)C2CC(=O)N(CCc3ccccc3)C2)cc1OCC (stereo unspecified)	i	1.8
4	CCOc1cccc(C(=O)Nc2cc(C)ccc2NC(=O)c2ccco2)c1	i	-2
5	Cc1nn(CC(=O)c2ccc(Cl)s2)c(C)c1[N+](=O)[O-]	i	-0.05
6	CCCCCC(=O)Nc1cc(S(=O)(=O)N2CCCCC2)ccc1N1CCOCC1	i	-0.56
7	O=C(COc1cc(O)c2c(=O)c3ccccc3oc2c1)OCc1ccccc1	i	0.08
8	O=C(Nc1ccc(-c2nc3ccccc3o2)cc1)c1cccnc1	i	-0.15
9	Cc1ccc(OCC(=O)N2N=C(c3ccc(Cl)cc3)CC2c2ccco2)c([N+](=O)[O-])n1 (stereo unspecified)	-8.3*	0.6*
10	CCOC(=O)C1=C(C)N=C2SC(C)C(=O)N2C1c1cccc(F)c1 (stereo unspecified)	i	-0.44
11	COC(=O)Cn1c2ccccc2c2nc3ccccc3nc21	i	-0.94
12	CC1(C)CC(=O)C/C(=N/Nc2nc3ccccc3s2)C1	i	-1.1
13	COc1cc(OC)cc(C(=O)NC(C(=O)O)C23CC4CC(CC(C4)C2)C3)c1 (stereo unspecified)	i	0.72
14	CC(=O)c1ccc(OCc2cc(C(=O)N(C)Cc3cc(C)no3)no2)cc1	i	-0.85
15	COc1ccc(OCc2cc(C(=O)N3CCCCCC3)no2)c(Cl)c1	i	-0.19
16	CCCN(CCC)C(=O)CSc1nc2ccsc2c(=O)n1NC(=O)c1ccccc1	i	-4.2
17	COc1ccccc1N1CCN(C(=O)c2cc(=O)c3cc(C)ccc3o2)CC1	i	0.73
18	CCCCOc1ccc(C(=O)NCC2(c3ccccc3)CCOCC2)cc1	i	1.3
19	O=S(=O)(c1ccccc1)N1N=C(c2cccs2)CC1c1ccc(F)cc1 (stereo unspecified)	i	-0.13
20	COc1ccc(NC(=O)CSc2nc(=O)n(CCN3CCOCC3)c3c2CCCC3)c(OC)c1	i	0.11
21	CC(C)CC(=O)Nc1nnc(S(=O)(=O)N2c3ccccc3CC2C)s1 (stereo unspecified)	i	0.15
22	CCCc1ccc(C(=O)[C@@H]2[C@@H](C(C)=O)N3c4ccc(F)cc4C=C[C@@H]3[C@@]23C(=O)Nc2ccccc23)cc1	i	-0.92
23	COc1cc(/C=N/NC(=O)c2cccc(C)c2)ccc1OCC(=O)Nc1ccccc1	i	-0.2
24	CNC(=O)Nc1ccccc1C(=O)Nc1ccccc1	i	0.56
25	COc1ccc(Cl)cc1N1Cc2ccccc2C1	i	-0.87
26	COc1ccccc1-c1nc(C#N)c(N2CC(C)CC(C)C2)o1 (stereo unspecified)	i	0.19
27	C/C(CC(=O)Nc1ccc(N(C)C)cc1)=N\NC(=O)C(=O)NCc1ccccc1	i	0.93
28	Cc1ccc(C2Cc3cc(O)c(O)cc3CN2)cc1 (stereo unspecified)	i	1.6
29	O=C1CC(N2CCN(Cc3ccccc3)CC2)C(=O)N1c1ccccc1 (stereo unspecified)	i	0.02
30	Cc1ccc(-c2csc3ncn(-n4c(C)ccc4C)c(=O)c23)o1	-6.6*	0.09*

Compounds 2 to 6 from above:
cpd	SMILES	KCNQ2 inh	KCNQ2 inh baseline
2	COC(=O)Nc1ccc(S(=O)(=O)N(C)C)cc1	i	3.3
3	CCOc1ccc(NC(=O)CN(C)C(=O)C2CC(=O)N(CCc3ccccc3)C2)cc1OCC (stereo unspecified)	i	1.8
4	CCOc1cccc(C(=O)Nc2cc(C)ccc2NC(=O)c2ccco2)c1	i	-2
5	Cc1nn(CC(=O)c2ccc(Cl)s2)c(C)c1[N+](=O)[O-]	i	-0.05
6	CCCCCC(=O)Nc1cc(S(=O)(=O)N2CCCCC2)ccc1N1CCOCC1	i	-0.56

(more compounds)
cpd	SMILES	KCNQ2 inh	KCNQ2 inh baseline
31	CCn1c(SC)nnc1-c1nnc(SC)n1CC	i	0.3
32	Cc1sc2c(=O)n3c(nc2c1C(=O)NCCCN1CCOCC1)CCCCC3	i	-0.23
33	Cc1cccc2cc(C#N)c(N3CCCC3)nc12	i	-1.4
34	Cc1[nH]c(C)c(S(=O)(=O)Nc2ccc(OC(F)(F)F)cc2)c1C(=O)N1CCCCC1	i	-0.16
35	Cc1ccc(C2(C)NC(=O)N(CC(=O)NCc3cccs3)C2=O)cc1 (stereo unspecified)	i	1.6
36	Oc1ccc(N2CCN(c3ncnc4sc(-c5ccccc5)cc34)CC2)cc1	i	0.16
37	O=C(Cc1c(Cl)cccc1Cl)NC1=NCCS1	i	0.26
38	CC1CCc2c(sc3nc(CN4CCOCC4)nc(N4CCc5ccccc5C4)c23)C1 (stereo unspecified)	i	-0.16
39	O=C(CCCOc1ccccc1)Nc1ccc(S(=O)(=O)N2CCOCC2)cc1	i	0.41
40	Cc1ccc(/C=C(\C#N)C(=O)NCCN2CCOCC2)cc1	i	-0.24
41	CCOc1ccc(CCNC(=O)COC(=O)c2cccnc2OCC)cc1OCC	i	-1.6
42	C#CCCCCCCC#CCN(C)C	i	2.5
43	CC(=O)Nc1ccc2nsnc2c1	i	-0.63
44	CC(C)CN(C(=O)CSc1nc(-c2ccccc2)cn1N)c1c(N)n(Cc2ccccc2)c(=O)[nH]c1=O	i	0.01
45	Cc1ccc(CNC(C)c2ccccc2)cc1 (stereo unspecified)	i	-0.08
46	CCOc1ccc(C2=NNC(c3cccs3)=Nc3ccc(OCC)cc32)cc1	i	0.71
47	CCCCn1c(SCC(=O)NCc2ccco2)nc2cc(S(N)(=O)=O)ccc21	i	0.98
48	O=C(O)c1ccccc1CSc1nnnn1-c1ccccc1	i	1.2
49	COc1ccc(CC(=O)NCC2(N3CCCCC3)CCCCC2)cc1	i	0.82
50	O=C(COc1ccc(Cl)cc1)NCCSCc1cccc(Cl)c1	-7.5*	0.2*
51	CC1(C)CC(=O)C=C(Nc2ccc3c(c2)OCCO3)C1	i	0.04
52	CC(=O)c1ccc(NC(=O)NC2CCCc3ccccc32)cc1 (stereo unspecified)	i	-1.7
53	Cc1onc(-c2ccccc2)c1C(=O)N/N=C/c1cc2c(cc1Br)OCO2	i	-0.92
54	Cc1cccc(N=C2NN=C(c3ccc4c(c3)OCCO4)CS2)c1	i	-0.28
55	CCNc1nc(NCC)n2c(SCC(=O)N3CC4(C)CC3CC(C)(C)C4)nnc2n1 (stereo unspecified)	i	2.6
56	CC(C)(C)c1ccc(OCCOCCn2cnc3ccccc3c2=O)cc1	i	-1.8
57	O=C(CN1CCCC1)NCc1ccccc1	i	-0.74
58	O=C1OCCC1Sc1nnc(-c2ccccc2Cl)n1Cc1ccccc1 (stereo unspecified)	i	2.9
59	CCOC(=O)N1CCN(C(=O)c2ccc3c(=O)n(-c4cc(OC)ccc4OC)c(=S)[nH]c3c2)CC1	i	-1.7
60	NS(=O)(=O)c1ccc(NC(=S)Nc2ccc(S(=O)(=O)N3CCCC3)cc2)cc1	i	-0.07

Random excerpt: 3 records from the list
cpd	SMILES	KCNQ2 inh	KCNQ2 inh baseline
60	NS(=O)(=O)c1ccc(NC(=S)Nc2ccc(S(=O)(=O)N3CCCC3)cc2)cc1	i	-0.07
59	CCOC(=O)N1CCN(C(=O)c2ccc3c(=O)n(-c4cc(OC)ccc4OC)c(=S)[nH]c3c2)CC1	i	-1.7
54	Cc1cccc(N=C2NN=C(c3ccc4c(c3)OCCO4)CS2)c1	i	-0.28

The list goes on.
cpd	SMILES	KCNQ2 inh	KCNQ2 inh baseline
61	O=C(Nc1ccccc1N1CCCCC1)c1ccc(F)c(S(=O)(=O)N2CCOCC2)c1	i	0.96
62	Cc1csc(SCC(=O)N2CCN(S(=O)(=O)c3ccccc3)CC2)n1	i	1.8
63	N#Cc1ccc(OCC(=O)N/N=C2\CCc3ccccc32)cc1	i	0.8
64	O=S(=O)(NCc1cn2ccsc2n1)c1ccc2c(c1)OCCO2	i	-1.1
65	COc1ccc(CNCc2cc3c(C(C)(C)C)nn(-c4ccccc4)c3[nH]c2=O)cc1	i	0.76
66	Cc1nn(C)c(C)c1CCC(=O)N1CCCC(Nc2ccc(C(C)C)cc2)C1 (stereo unspecified)	i	2.2
67	CCC(C)(C(=O)NC1CCCC1)N(Cc1cccs1)C(=O)Cc1cccs1 (stereo unspecified)	i	-0.06
68	CCOC(=O)c1ccc(NC(=O)CSc2nnc(CNC(=O)c3ccccc3F)o2)cc1	i	2.3
69	Cc1ccc(-n2[nH]c(C)c(C=NC34CN5CN(CN(C5)C3)C4)c2=O)cc1C	i	-1.1
70	CCOc1ccc(-c2cc(C(=O)NCC3CCCO3)c3ccccc3n2)cc1 (stereo unspecified)	i	0.07
71	COc1ccc(OC)c(Nc2nc(-c3ccncc3)nc3ccccc23)c1	i	-0.48
72	N#Cc1c(C(F)(F)F)cc(-c2ccco2)nc1SCc1ccccn1	i	-0.26
73	O=C1CN(c2ccc(F)cc2)C(=S)N1c1ccccc1	i	0.59
74	CCn1cc(C(=O)N(CCCN2CCOCC2)Cc2ccco2)c(=O)c2ccc(C)nc21	i	0.69
75	O=C1CC(N2CCN(c3ccccn3)CC2)C(=O)N1CC(c1ccccc1)c1ccccc1 (stereo unspecified)	i	0.03
76	Cn1c(SCC(N)=O)nnc1C1CCN(C(=O)NC2CCCCC2)CC1	i	-0.04
77	CN(CC(=O)Nc1ccc(F)cc1)C(=O)c1ccc(-c2ccc(Cl)cc2)o1	i	1.4
78	O=C(c1cc(COc2cccc(C(F)(F)F)c2)on1)N1C[C@H]2CC[C@H]1C2	i	0.28
79	NC(=O)CSc1nnc(-c2cccnc2)n1CCc1ccccc1	i	-2.3
80	CCc1sc(C(=O)Nc2ncccc2O)cc1C	i	0.02
81	COc1ccc(N2CCN(S(=O)(=O)c3ccc4c(c3)NC(=O)C(C)S4)CC2)cc1 (stereo unspecified)	i	0.28
82	Cn1c(=O)c2c([nH]c(=O)n2C)n(Cc2ccccc2)c1=O	i	-1.5
83	S=c1[nH]cc(-c2ccc(Cl)cc2)n1Cc1ccccc1	i	5.7
84	CCc1ccc(NC(=O)Cn2c(SC)nc3ccccc32)cc1	i	-0.21
85	CCN(CC)C(=O)c1cn(-c2ccccc2)nc1-c1ccc2c(c1)OCCO2	i	-0.21
86	CC1CCN(CCc2nc3cc(NS(=O)(=O)c4ccc(F)cc4)ccc3n2C)CC1	i	-2.5
87	Nc1ccc(-n2cnc3cc([N+](=O)[O-])ccc32)cc1	i	-0.04
88	COc1ccc(C(=O)NCC(C)(C)SCc2c(C)cc(C)cc2C)cc1	i	1.1
89	Cc1cc(Nc2cnc3ccccc3n2)n(-c2ccccc2)n1	i	-0.01
90	CN(c1ccccc1)S(=O)(=O)c1ccc(C(=O)NCCc2ccccc2)cc1	i	-1.1
91	CCOc1ccc(C(=O)NC(=S)Nc2cccnc2)cc1[N+](=O)[O-]	i	1.3
92	CSc1ccc(CNc2ccccc2)cc1	i	-0.03
93	COc1cc(/C=C/C(=O)OCC(=O)NC(=O)NC(C)C)cc(S(=O)(=O)N2CCc3ccccc32)c1OC	i	0.58
94	COc1ccc(C2(C(N)=O)CCCCC2)cc1OC	i	0.02
95	COc1ccc(C(=O)NC2(C(F)(F)F)NC(=O)N(CCCc3ccccc3)C2=O)c(OC)c1OC (stereo unspecified)	i	-1.4
96	O=C(c1ccc(COc2ccccc2Br)cc1)N1CCCCC1	i	-2.3
97	Cc1noc(C)c1S(=O)(=O)N1CCCC1C(=O)O (stereo unspecified)	i	1.2
98	CC(=O)N1c2ccc(S(=O)(=O)N3CCCC3C(=O)NCc3ccc(Cl)cc3)cc2CC1C (stereo unspecified)	i	-0.62
99	O=c1cc(O)c2sc3nc(-c4cccnc4)cc(C(F)(F)F)c3c2[nH]1	i	-0.13
100	CCOc1ccc(CN2CCN(C3CCC3)CC2CCO)cc1 (stereo unspecified)	i	0.96
101	CCOC(=O)N1CCN(CC(=O)Nc2sccc2C#N)CC1	i	-0.93
102	O=C(COC(=O)CNS(=O)(=O)c1ccc(Br)cc1Cl)NC1CCCC1	i	0.12
103	CCCCOc1ccc(/C=C/C(=O)Nc2ccc([N+](=O)[O-])cc2C)cc1	i	1.6
104	O=C1C(Cl)=C(N2CCCC2)C(=O)N1c1ccc(F)cc1	i	-0.47
105	N/C(CN1CCCC1=O)=N\OC(=O)c1ccccc1Cl	i	-0.76
106	O=C1c2ccccc2NC(c2cccc(O)c2)N1NS(=O)(=O)c1ccccc1 (stereo unspecified)	i	-0.18
107	O=C(Nc1nnc(-c2ccc(F)cc2)o1)C1CCCN1S(=O)(=O)c1cccs1 (stereo unspecified)	i	-0.48
108	Cc1ccc(-c2noc(CNc3ccccc3)n2)cc1	i	1.3
109	COCn1c(-c2ccc(OC)c(OC)c2)nc2ccccc21	i	-1.8
110	COc1ccc(N/C=C/c2nc(SC)nnc2C)cc1	i	-0.49
111	Cn1c(=O)n(C)c2cc(NC(=O)Cc3ccccc3[N+](=O)[O-])ccc21	i	-0.2
112	COc1cc(C2C(C#N)=C(N)Oc3c2oc(CO)cc3=O)ccc1OC(C)C (stereo unspecified)	i	1.6
113	O=C(OCCN1C(=O)c2cccc3c(N4CCOCC4)ccc(c23)C1=O)c1ccccc1Cl	i	5.2
114	COc1cc2[nH]c(C(=O)NN)c(N)c2cc1OC	i	0.17
115	S=C(NCc1ccco1)N1CCOCC1	i	0.06
116	Cc1ccc(NC(=O)COC(=O)Cn2c(C)csc2=O)cc1C	i	0.99
117	CN(C)S(=O)(=O)c1ccc(N2CCCC2)c(C(=O)NNC(=O)COc2ccc(Cl)cc2)c1	-7*	1.4*
118	O=C(Nc1cc(C(F)(F)F)ccc1Cl)C(Sc1cccc[n+]1[O-])c1ccccc1 (stereo unspecified)	i	0.01
119	COc1ccccc1NC(=O)c1cc(C)oc1C	i	0.61
120	CCN(CC)C(=O)CSc1nc2cc3c(cc2c(=O)n1CCCCCC(=O)NCc1ccc(OC)cc1)OCO3	i	-0.79
